Tgondii IFNg: T. gondii growth inhibition with IFN-gamma, primary screen, cell-based. Toxoplasma gondii growth in IFN-gamma-treated host cells; stronger effect = lower value; reference of the scale not given here. activity change, negative = inhibition, %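 (about 20 µM by stock and volumes)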. 3.8% of 69,000 active;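 active means below -70%; inconclusive means fit judged invalid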;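 further: host cells are HeLa cells infected with Toxoplasma gondii; parasite growth read as luciferase light; one replicate is shown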
* = called active by the depositor; i = inactive; u = inconclusive. This is a subset (hit frequency here may not be typical).

O=C(CN1C(=O)CCc2cc(S(=O)(=O)N3CCCCC3)ccc21)NC1CC1
  Tgondii IFNg = 21
Cc1nc(-c2cccnc2)sc1C(=O)N(CCN(C)C)Cc1ccc2c(c1)OCO2
  Tgondii IFNg = -47
CC(CCc1ccc(O)cc1)NCC(O)c1ccc(O)cc1 (stereo not given)
  Tgondii IFNg = 12
Cc1nn(CCNC(=O)C(c2ccc(F)cc2)N(C)C)c(C)c1C (stereo not given)
  Tgondii IFNg = -1
CN(C)C(=O)N1CCOCC2(CCN(Cc3nccs3)C2)C1 (stereo not given)
  Tgondii IFNg = 27
CCCc1cn(C2CCN(C3CCN(Cc4ccccc4)CC3)CC2)nn1
  Tgondii IFNg = -20
CCCNC(=O)C[C@H]1CC[C@H]2[C@@H](COC[C@@H](O)CN2C(=O)c2ccc(F)cc2)O1
  Tgondii IFNg = -6
Cc1cccc2cc(CN3C[C@H](OC(C)C)[C@@H](O)C3)c(=O)[nH]c12
  Tgondii IFNg = 9
Cc1noc(C)c1CN1CCC2(CC1)Cc1ccccc1CNC2=O
  Tgondii IFNg = 63
CN(C)C(=O)CC1CC2(CCN(S(=O)(=O)c3ccccc3)CC2)Oc2ccccc21 (stereo not given)
  Tgondii IFNg = -10
CCC(=O)N1C[C@@H]2OCCN(Cc3cnn(C)c3)[C@H]2C1
  Tgondii IFNg = 3
O=C(c1ccno1)N1CC[C@H]2CN(Cc3ccc(Cl)cc3)S(=O)(=O)[C@@H]2CC1
  Tgondii IFNg = 2
Cc1ccc(S(=O)(=O)N2CCC3(CC2)Nc2ccc(C)c(C)c2-n2cccc23)cc1C
  Tgondii IFNg = -25
O=C(c1n[nH]c2c1CCN(Cc1cccs1)C2)N1CCOCC1
  Tgondii IFNg = 33
OCCN1CCC(Cn2ccnc2C2CC=CCC2)CC1 (stereo not given)
  Tgondii IFNg = -3

Reprinted from the part before: 3 compounds, followed by the next part.
Cc1ccc(S(=O)(=O)N2CCC3(CC2)Nc2ccc(C)c(C)c2-n2cccc23)cc1C
  Tgondii IFNg = -25
O=C(c1n[nH]c2c1CCN(Cc1cccs1)C2)N1CCOCC1
  Tgondii IFNg = 33
OCCN1CCC(Cn2ccnc2C2CC=CCC2)CC1 (stereo not given)
  Tgondii IFNg = -3
CCC1=NOC(CNC(=O)Cc2c(C)nn(-c3ccccc3)c2C)C1 (stereo not given)
  Tgondii IFNg = 44
O=C(C[C@H]1CC[C@@H]2NC[C@H](O)COC[C@H]2O1)Nc1ccc(-c2ccccc2)cc1
  Tgondii IFNg = 3
CC(C)Nc1nc2c(cc1C(=O)N1CCCC1)CCN(c1ncc(F)cn1)CC2
  Tgondii IFNg = -7
O=C(NCC1CCCO1)c1ccc(-c2ccccc2)cc1 (stereo not given)
  Tgondii IFNg = 176
Cc1ncc2c(c1CNC(=O)/C=C/c1ccccc1)CCN(C(=O)c1ccc(N3CCCC3=O)cc1)C2
  Tgondii IFNg = -1
Cc1cc(F)ccc1NC(=O)CNS(=O)(=O)NCc1ccccc1
  Tgondii IFNg = -4
N#C[C@@H]1[C@H](c2ccc(C3=CCCCC3)cc2)[C@@H](CO)N1S(=O)(=O)c1ccccc1
  Tgondii IFNg = -32
Fc1ccc(C2Nc3ccccc3C3OCCCC23)cc1 (stereo not given)
  Tgondii IFNg = 17
O=c1oc2ccc(Cl)cc2cc1-c1nc(-c2ccccc2)c2cc(Cl)ccc2n1
  Tgondii IFNg = 4
Cc1cc(C(=O)NCc2ccc3c(c2)OCO3)ccc1NC(=O)c1ccco1
  Tgondii IFNg = -5
Cc1ccccc1OCC(=O)NCCc1sc(-c2ccc(F)cc2)nc1C
  Tgondii IFNg = -41
CCn1cc(/C=C/c2ccccc2)c(C)n1
  Tgondii IFNg = 104
O=S(=O)(c1cccs1)N1CCCCN2[C@H](CO)[C@H](c3ccc(/C=C/c4ccccc4)cc3)[C@@H]2C1
  Tgondii IFNg = -53
CCC(=O)Nc1cccc(OCC(=O)N2CCC(Oc3ccc(C)cc3)CC2)c1
  Tgondii IFNg = -19
Cc1ccc(NC(=O)N2CCN(Cc3nc(-c4ccccc4C)oc3C)CC2)cc1
  Tgondii IFNg = -1

CC(C)NC(=O)[C@@H]1C[C@H](N)CN1C(=O)[C@H]1CCCO1
  Tgondii IFNg = -2
COCCN1CC2(CCCCN2C(=O)Cc2ccccc2)CC1=O (stereo not given)
  Tgondii IFNg = -5
C/C=C/c1ccc([C@H]2[C@H](CO)N(S(=O)(=O)Cc3ccccc3)C23CN(C(=O)C2CCCC2)C3)cc1
  Tgondii IFNg = 93
CCN1CCN(C(=O)c2cccc(NC(=O)C3CCCC3)c2)C(C)C1=O (stereo not given)
  Tgondii IFNg = 4
O=C(c1ccc(-n2ccnc2)cc1)N1CC(c2ccccn2)C1
  Tgondii IFNg = 75
Cc1ccc(C(=O)Nc2ccc(-c3nc(Cn4cccn4)c(C)o3)cc2)cc1
  Tgondii IFNg = -47
CN1CCCn2nc(C(=O)NCCSc3nnnn3C)cc2C1
  Tgondii IFNg = -3
CCC(=O)N1CCC2(CC1)Nc1ccc(Cl)cc1-n1cccc12
  Tgondii IFNg = 51
COCC(=O)N1CCC2C1CCC(=O)N2CCN1CCCC1 (stereo not given)
  Tgondii IFNg = -4
Cn1c(-c2ccc(Cl)cc2)cnc1SCc1c(Cl)cccc1Cl
  Tgondii IFNg = 19
Cc1nccn1CCN(C)c1cc(NC2CC2)nc(N)n1
  Tgondii IFNg = 1
c1cncc(C[C@@H]2[C@H](N3CCOCC3)CCN2Cc2ccco2)c1
  Tgondii IFNg = 1
Cc1ccc(S(=O)(=O)NCC[C@@H]2CC[C@@H](NC(=O)c3cccnc3)[C@H](CO)O2)cc1
  Tgondii IFNg = -48
CC(C)N1CCNC(=O)C1CC(=O)NC1(CN2CCOCC2)CCCC1 (stereo not given)
  Tgondii IFNg = -3
Cc1noc(C)c1NC(=O)N(C)C[C@H]1Oc2ccc(NC(=O)CCCN(C)C)cc2C(=O)N([C@H](C)CO)C[C@H]1C
  Tgondii IFNg = 2

More entries
Structure	Tgondii IFNg
Cc1nc(-c2cc(C(=O)N3CCC(N(C)C)CC3)c3ccccn23)cn1C	30
CC(C)(C)c1cc(CN2CCn3cncc3C2)[nH]n1	-5
CC(C)C(=O)N1CCC(C2C(=O)Nc3ccccc32)CC1 (stereo not given)	492
C[C@@H]1CN([C@H](C)CO)C(=O)c2cc(N(C)C)ccc2O[C@@H](C)CCCCO[C@@H]1CN(C)S(=O)(=O)c1cn(C)cn1	206
CC(Oc1ccc(-n2cnnn2)cc1)C(=O)N(C)CC1OCCc2ccccc21 (stereo not given)	3
COc1cccc(CNC2=NCCNC23CCN(S(=O)(=O)c2ccc(C)c(C)c2)CC3)c1	10
COCC(=O)N1CC[C@@H]2[C@H](CO)Nc3ccc(-c4ccc(C(=O)N(C)C)cc4)cc3[C@@H]21	-13
CC(=O)Nc1ccc(C)c(NS(=O)(=O)c2cccc(C(F)(F)F)c2)c1	-20
O=C(CC1Nc2c3ccccc3nc(=S)n2C1=O)NCc1ccc(Cl)cc1 (stereo not given)	-37
CC(C)C1=NOC(C(=O)N2CCC(c3cc(C(C)C)n[nH]3)CC2)C1 (stereo not given)	14
Cc1nn(C)cc1NC(=O)C[C@H]1CC[C@@H]2[C@H](COc3ccc(NC(=O)c4cccc(F)c4)cc3C(=O)N2C)O1	6
COc1ccc(S(=O)(=O)N(Cc2ccccc2)Cc2nc3ccccc3c(=O)[nH]2)cc1	u
CCN1CCC2(CC1)OC(=O)C(C)=C2C(=O)NCCCN1CCCC1=O	250
O=C(c1ccccc1N1CCS(=O)(=O)CC1)N1CCC2(CCCO2)CC1	-11
CCC(Sc1nc(C)cc(C)n1)C(=O)O (stereo not given)	0
Cc1ccc2cc(C3(O)CCN(C(=O)c4sccc4N)CC3)ccc2n1	151
Cc1nc(CCn2ccnc2-c2c(C)n(C)n(-c3ccccc3)c2=O)sc1C	5
CN1CC2(CCCN(C(=O)c3cccc(Cn4cccn4)c3)CC2)OC1=O (stereo not given)	0
O=C(CC1COCCN1)NCCCn1ccnc1 (stereo not given)	-5
COc1ccc2c(c1)C=C(CN1CCC(O)(c3ccc(C)cc3)CC1)CO2	116

Looked up by structure from above:
Structure	Tgondii IFNg
CC(C)C1=NOC(C(=O)N2CCC(c3cc(C(C)C)n[nH]3)CC2)C1 (stereo not given)	14
COc1cccc(CNC2=NCCNC23CCN(S(=O)(=O)c2ccc(C)c(C)c2)CC3)c1	10
O=C(CC1COCCN1)NCCCn1ccnc1 (stereo not given)	-5
CN1CC2(CCCN(C(=O)c3cccc(Cn4cccn4)c3)CC2)OC1=O (stereo not given)	0
Cc1nn(C)cc1NC(=O)C[C@H]1CC[C@@H]2[C@H](COc3ccc(NC(=O)c4cccc(F)c4)cc3C(=O)N2C)O1	6

Back to the main list with the 2 entries that preceded the break.
Structure	Tgondii IFNg
O=C(CC1COCCN1)NCCCn1ccnc1 (stereo not given)	-5
COc1ccc2c(c1)C=C(CN1CCC(O)(c3ccc(C)cc3)CC1)CO2	116
CCc1cc(C(=O)C(F)(F)F)[nH]c1-c1ccccc1	1
Cc1ccc(CN2CC[C@@H](N3CCOCC3)[C@H]2Cc2cnn(C)c2)o1	11
O=C(c1cccc(F)c1)N1CCc2c([nH]c3ccccc23)C1c1ccc(F)cc1 (stereo not given)	141
Cc1ccccc1NC(=O)CC(=O)N1C[C@H](OC(C)C)[C@@H](O)C1	-47
CC(=O)N1CCC12CCN(Cc1ccc(C)s1)CC2	-8
COCCN1CC2(CCN(C(C)=O)CC2)CC1COCC1CC1 (stereo not given)	-7
CCC/C=C/c1cc(C(=O)O)cc(S(=O)(=O)N2CCN(C)CC2)c1	3
CCOc1ccc(CNC(=O)C2=C(C)C(=O)OC23CCN(C(C)=O)CC3)cc1	41
Cc1cc(F)ccc1S(=O)(=O)NCCc1sc(-c2ccc(Cl)cc2)nc1C	362
COc1ccc(NC(=O)N(C)C[C@@H]2Oc3ccc(NC(=O)Nc4cccc5ccccc45)cc3CC(=O)N([C@@H](C)CO)C[C@H]2C)cc1	32
Cc1ccc(NC(=O)N2CCN(Cc3nc(-c4cccc(Cl)c4)oc3C)CC2)cc1F	-5
CSc1nnc(-c2ccc(S(=O)(=O)Nc3ccccc3Cl)s2)n1C	-4
O=C(c1ccccc1)c1c(Cl)cc(C(F)(F)F)cc1Cl	-3
CN(C)C(=O)C[C@H]1CC[C@H]2[C@H](COc3ccc(NC(=O)C4CCCCC4)cc3C(=O)N2C)O1	5
N#C[C@@H]1[C@@H](c2ccccc2C2=CCCC2)[C@H](CO)N1C(=O)C1CCOCC1	-32
Cc1ccc(N)cc1NC(=O)CN1CCOCC1	38
CC1CCN(S(=O)(=O)N2CCCC2c2cccc(F)c2)CC1 (stereo not given)	2
O=C(COc1ccc(Cl)cc1)NCCc1csc(-c2cccc(F)c2)n1	-47
CC(NC(=O)c1ccc(F)cc1)C(=O)O (stereo not given)	-1
COc1ccc(NC(=O)N(C)C[C@H]2OCc3ccccc3-c3ccccc3C(=O)N([C@H](C)CO)C[C@H]2C)c(OC)c1	26
O=C(CSc1ncn[nH]1)NCCOc1ccccc1	0
Cc1cccc(C(=O)N2CCC[C@@]3(C(=O)N4CCOCC4)CN(c4ccccn4)C[C@H]3C2)c1	-22
CC(=O)Nc1ccc(NC(=O)c2nc(-c3ccc(C)cc3)n3c2CCCCC3)cn1	-99*
CC(C)(C)S(=O)N1Cc2cc(C(=O)O)nc(-c3cccc(-c4cc5ccccc5o4)c3)c2[C@@H]1CCO (stereo not given in full)	7
Cc1nc2ccccc2c(=O)n1CC(=O)Nc1cnn(Cc2ccccc2F)c1	5
Cc1cccc(CC(=O)N2CCC3(CC2)Nc2cccnc2NC3=NC2CCCC2)c1	133
Cc1cc(=O)n(CC(=O)N2CCC(c3onc4c3CCCCC4)CC2)c2ccccc12	-1
C=CCNC(=O)c1c(O)c2cccnc2n(-c2ccc(OC)cc2)c1=O	1
CCCCNC(=O)N1CCN(c2ncc(Br)cn2)CC1	-61
CCOC(=O)c1c(C)nc2ccc(Cl)cc2c1-c1ccccc1	-5
CC(C)CN1CC2(CCN(C(=O)Cc3ccsc3)CC2)C2(CCN(C)C2=O)C1 (stereo not given)	20
Cc1noc(C)c1C(=O)N1CCCC2(CC(CN3CCCC3)CO2)C1 (stereo not given)	4
N#C[C@@H]1[C@H](c2ccccc2-c2cccc(F)c2)[C@H](CO)N1S(=O)(=O)c1cccc(F)c1	9
O=C(c1cnccn1)N1CCCC2(CCN(c3ccccn3)C2)C1 (stereo not given)	21
Cc1cccc(-c2ccc(CC3CN(C(=O)C(C)Cn4cccn4)CCNC3=O)cc2)c1 (stereo not given)	-6
CCN(CC)c1ncnc2c1cnn2CC(=O)Nc1cccc(Cl)c1C	-41
CCCNC(=O)N1CCC2(CC1)c1cccn1-c1ccc(C)cc1N2CC	-16
CCOc1ccc(-c2nc(Cn3nnc(C(=O)Nc4ccc(C)c(F)c4)c3C)c(C)o2)cc1	71
Cc1cc(=O)c2cc(Cl)ccc2s1	59
CCCCOC(=O)c1ccc(-c2cc(C(F)(F)F)nn2C)s1	13
CN1CCCn2c(nc(CNC(=O)c3cnn(C)c3)cc2=O)C1	-2
C[C@@H]1CCCCO[C@H](CN(C)Cc2ccc(C(F)(F)F)cc2)[C@@H](C)CN([C@H](C)CO)C(=O)c2cc(NC(=O)Nc3cccc4ccccc34)ccc2O1	i
COc1cccc(NC(=O)N2C[C@@H](O)COC[C@H]3O[C@H](CC(=O)N(C)C)CC[C@@H]32)c1	15
O=C(NCc1ccco1)[C@@H]1CN(Cc2cccc(F)c2F)[C@@H]2CCO[C@H]21	-3
Cc1ccc(NC(=O)CCNC(=O)c2sc(C(C)C)nc2C)c(C)c1	-50
Cc1ccc2c(c1)c(CNC(=O)CSc1nnc(N)s1)nn2C	2
O=C(Nc1cc(F)ccc1F)N[C@H]1CC[C@H](CC(=O)N2CCc3ccccc3C2)O[C@H]1CO	1
O=C(c1ccc(F)cc1)N1CCN(Cc2ccccc2)CC(O)(Cn2cncn2)C1 (stereo not given)	41
CCN(CC)C(=O)c1cc(=O)n(CC(=O)Nc2ccccc2Cl)c2ccccc12	10
O=C(CC1Nc2c3ccccc3nc(=S)n2C1=O)NCCc1ccc(Cl)cc1 (stereo not given)	-8
Cc1nn(-c2cc(N3CCCC3)ncn2)c(C)c1CCC(=O)NC1CCCCC1	2

High-throughput results deposited in PubChem BioAssay by Broad Institute.
